Bioassay records (PubChem BioAssay)
PINK1 expr mod = modulators of PINK1 expression; PINK1 immunofluorescence, high-content cytometry, 24 h; Potency, µM (highest dose often 76.6 µM), without a hit: top-dose activation (PINK1 increase), hits mostly activators; 0.2% of 410,000 active; AID 624263; active = well fitted activation curve with a large enough effect; inconclusive = small, poorly fitted or top-dose-only effect; inactive = flat fitted curve, though single readings scatter; cell line not stated here;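 also: % of control where 0% means no effect; nearly all actives have a fitted effect of over 65% in size; a mitochondrial uncoupler was the plate control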
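PINK1 protein level read as immunofluorescence by microplate cytometer in a fixed, stained stable cell line after 24 h exposure to five compound concentrations, with CCCP as control.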
Active calls of the source: *. Potency is read from the fitted curve at half-maximal effect.

| canonical_smiles | PINK1 expr mod |
| --- | --- |
| COc1ccccc1CNC(=O)c1cccn1-c1nnc(N2CCCC2)s1 | 0.2% |
| O=C(NC1CCN(Cc2ccccc2)CC1)c1ccc(Cn2c(=O)c3ccccc3n(Cc3ccc(F)cc3)c2=O)cc1 | 0.6% |
| Cc1ccc(NC(=O)Cn2cc3c(n2)CCC(C)C3)cc1C (stereo unspecified) | 4.7% |
| CCc1cccc(NC(=O)COc2cc(=O)n(CC)c3ccccc23)c1 | 7.0% |
| O=c1[nH]c2c(-c3nc(-c4ccc(F)cc4)cs3)c(O)cn2c2ccc(Br)cc12 | 23% |
| CCN(CC)c1cc(C)c2cc(NC(=O)c3cccc(F)c3)ccc2n1 | 5.3% |
| O=C(Cn1c(=O)n(Cc2ccccc2)c(=O)c2sc3ccccc3c21)Nc1ccccc1F | -0.9% |
| COc1ccccc1N1CCN(C(=O)CCc2nnc3n(C)c(=O)c4sccc4n23)CC1 | 3.6% |
| O=[N+]([O-])c1ccc(S(=O)(=O)N2CCn3cccc3C2c2ccccc2F)cc1 (stereo unspecified) | 1.8% |
| Cc1ccc(CCNC(=O)c2cn(C)c3ccc(S(=O)(=O)N(C)C4CCCCC4)cc3c2=O)cc1 | 0.5% |
| COc1ccccc1N1CCN(C(=O)c2cn(C)c3ccc(S(=O)(=O)N(C)C4CCCCC4)cc3c2=O)CC1 | 1.6% |
| Cc1cc(-c2ccc(C)c(S(=O)(=O)NC(c3cccs3)C(C)C)c2)on1 (stereo unspecified) | 1.9% |
| Cc1ccc(Cl)cc1NS(=O)(=O)c1ccc2c(c1)NC(=O)CCS2 | -1.7% |
| Cc1ccccc1-c1nc2scc(CCNS(=O)(=O)c3ccccc3)n2n1 | 1.3% |
| Cc1ccc2cc(CNCc3cccc4ccccc34)c(N3CCC(O)CC3)nc2c1 | -0.8% |
| O=C1CC(c2ccccc2)Cc2[nH]c(=O)c(-c3nc(-c4ccc(Cl)cc4)cs3)cc21 (stereo unspecified) | 9.1% |
| COC(=O)c1c(-c2cccs2)csc1NC(=O)COc1ccc(C)cc1 | 3.1% |
| Cc1cccc(OCC(=O)NCc2ccc3c(c2)CCN3C(=O)c2ccc(Cl)cc2)c1 | 1.5% |
| COc1ccc(CNC(=O)c2cnn(-c3ncc4c(n3)-c3ccccc3CC4)c2C)cc1OC | 0.6% |
| Cc1ccc(-n2c(=O)c3c(c4cc(C)ccc4n3C)n(CC(=O)NCc3ccccc3)c2=O)cc1 | -0.2% |

Shown with the structure last: part of the list above.
PINK1 expr mod	SMILES
1.8%	O=[N+]([O-])c1ccc(S(=O)(=O)N2CCn3cccc3C2c2ccccc2F)cc1 (stereo unspecified)
3.6%	COc1ccccc1N1CCN(C(=O)CCc2nnc3n(C)c(=O)c4sccc4n23)CC1
1.3%	Cc1ccccc1-c1nc2scc(CCNS(=O)(=O)c3ccccc3)n2n1
4.7%	Cc1ccc(NC(=O)Cn2cc3c(n2)CCC(C)C3)cc1C (stereo unspecified)
1.5%	Cc1cccc(OCC(=O)NCc2ccc3c(c2)CCN3C(=O)c2ccc(Cl)cc2)c1
9.1%	O=C1CC(c2ccccc2)Cc2[nH]c(=O)c(-c3nc(-c4ccc(Cl)cc4)cs3)cc21 (stereo unspecified)

Next section:
| canonical_smiles | PINK1 expr mod |
| --- | --- |
| Cc1ccccc1Cn1cc(S(=O)(=O)c2ccc(Cl)cc2)c(=O)c2cc3c(cc21)OCO3 | 0.3% |
| CC1=C(c2ccc(C(C)C)cc2)S(=O)(=O)NC1=NCc1ccc(OC(C)C)cc1 | 2.4% |
| CCc1ccccc1NC(=O)CSc1ncccc1C(=O)O | 0.8% |
| Cc1ccc(CSCCC(=O)N2CCN(c3ccc(F)cc3)CC2)cc1 | 0.6% |
| COCc1c(C(=O)N2CCN(C(C)C)CC2)cnn1-c1nccc(-c2cc(C)sc2C)n1 | -0.6% |
| CC(=O)N1CCc2c(sc3nc(SCC(N)=O)n(-c4ccc(F)c(Cl)c4)c(=O)c23)C1 | 1.4% |
| CCc1nnc(NC(=O)C2CCCN(C(=O)c3ccoc3)C2)s1 (stereo unspecified) | -0.3% |
| COc1ccc(CNC(=O)Cn2c(=O)c3cccn3c3cccnc32)cc1 | 0.5% |
| CCc1ccccc1Nc1nn2c(=O)c3ccc(C(=O)NC4CCCCC4)cc3nc2s1 | -5.6% |
| COc1ccc(CCNC(=O)CCS(=O)(=O)c2cc3c(cc2Cl)NC(=O)CO3)cc1OC | 0.5% |
| Cc1cccc(CSc2ncc(Cl)c(C(=O)Nc3sc4c(c3C(N)=O)CCCC4)n2)c1 | 3.0% |
| COc1ccc(C)cc1NC(=O)Cn1c(=O)nc(-c2ccccc2F)c2cc(Cl)ccc21 | -0.4% |
| CCOc1ccccc1CNC(=O)c1cc(-c2ccc(Cl)s2)nc2ccccc12 | 6.1% |
| CN(C)C(=O)CCC(=O)NCC1Cc2cccc(-c3ccccc3C(F)(F)F)c2O1 (stereo unspecified) | 0.1% |
| COc1ccc(OC)c(Nc2ncnc3c2cnn3-c2cccc(Cl)c2)c1 | 15% |
| Cc1ccc2c(=O)cc(C(=O)Nc3ccc(S(=O)(=O)N(C)c4ccccc4)cc3)oc2c1C | 0.7% |
| CCCN(Cc1cccs1)C(=O)Nc1cc(Cl)ccc1C | 0.9% |
| Cc1ccc(C)c(N2CCN(c3nc4ccccc4n4nnnc34)CC2)c1 | 0.6% |
| CCOC(=O)c1cccc(NC(=O)[C@H](CSCc2ccccc2)N2Cc3ccccc3C2=O)c1 | 1.1% |
| CCOc1ccccc1C(=O)Nc1ccc2nc3c(c(Nc4ccc(OC)c(OC)c4)c2c1)CCCC3 | 6.5% |
| Cc1ccc(NC(=O)c2cc(S(=O)(=O)N3CCC4(CC3)OCCO4)ccc2F)cc1Cl | 0.5% |
| O=C(Cn1c(=O)n(-c2ccccc2)c(=O)c2ccc(C(=O)NCc3ccc4c(c3)OCO4)cc21)Nc1ccc(F)c(Cl)c1 | -3.7% |
| COc1ccc(NS(=O)(=O)c2cc3[nH]c(=O)c(=O)[nH]c3cc2C)cc1Cl | 2.3% |
| Cc1ncc2c(c1CNC(=O)c1ccc3c(c1)OCO3)CCN(C(=O)c1noc3c1CCCC3)C2 | 0.3% |
| Cc1ccc(CNC(=O)Cn2ncc3c(C)n(Cc4ccc(Cl)cc4)c(C)c3c2=O)cc1 | 5.2% |
| O=C(Nc1ccc(Br)cc1)N1CCC(CN2CCCC2)CC1 | 1.2% |
| COc1ccc(-c2cc(C)no2)cc1S(=O)(=O)NC1CCC(C)CC1 (stereo unspecified) | -1.4% |
| COc1ccccc1N1CCN(C(=O)C2CCN(S(=O)(=O)c3cn(C)cn3)CC2)CC1 | 1.7% |
| COC1(OC)C=CC(=O)C=C1NC(=O)c1ccccc1OC(C)=O | -0.4% |
| Brc1cccc[n+]1C/C=C/C[n+]1ccccc1Br | 1.9% |
| CC(C)(C)C1CCc2c(sc(NC(=O)Cn3nnc(-c4cccc(C(F)(F)F)c4)n3)c2C#N)C1 (stereo unspecified) | -4.5% |
| Cc1ccc(C)c(NC(=O)c2cnn(-c3cccc(F)c3)c2C2CCN(C(=O)OC(C)(C)C)CC2)c1 | 0.8% |
| O=C(COc1ccccc1C(=O)NCc1ccccc1)Nc1ccc(Br)cc1 | 8.7% |
| CCOc1ccc(-c2nnc(SCC(=O)NCCC(C)C)nc2-c2ccc(OCC)c(OC)c2)cc1OC | 3.5% |
| c1ccc(Cn2sc(=Nc3ccccc3)nc2-c2ccccc2)cc1 | 0.2% |
| CCOC(=O)Cn1c(=O)n(-c2cccc(Cl)c2)c2nc(-c3ccccc3Cl)nc(C(N)=O)c21 | 6.5% |
| Cc1ccc(NC(=O)CSc2nc(-c3ccco3)cc(C(F)(F)F)n2)c(C)c1 | 11% |
| O=C(Cc1ccccc1)Nc1cccc(-c2nc3cccnc3s2)c1 | 3.8% |
| O=C(CSc1nc(-c2ccco2)nc2cc(=O)[nH]n12)Nc1ccccc1F | 3.6% |
| CCCN1C(=O)C(O)(CC(=O)c2ccc(CC)cc2)c2ccccc21 (stereo unspecified) | 2.1% |
| COc1ccccc1CN1C(=O)[C@@H]2Cc3c([nH]c4ccccc34)C(C)(C)N2C1=O | 1.5% |
| COc1ccc(-c2cc(C(F)(F)F)c(C#N)c(SCC(=O)Nc3ccccc3F)n2)cc1 | -1.4% |
| COc1cccc(CCNC(=O)c2cnc3sc(N4CCOCC4)nn3c2=O)c1 | -0.4% |
| CCOC(=O)c1cc(-c2ccccc2)n(-c2cccc(C(=O)Nc3cccc(SC)c3)c2)c1C | 2.8% |
| Cc1cccc(NC(=O)C(=O)NCC(c2cccnc2)N2CCc3ccccc32)c1C (stereo unspecified) | -0.7% |
| Cn1c(=NC(=O)c2ccc(S(=O)(=O)N3CCCc4ccccc43)cc2)sc2cc(F)ccc21 | -0.2% |
| Cc1ccc(-c2ccc(CCC(=O)O)n2-c2ccc(C(C)C)cc2)cc1 | 0.0% |
| CCn1c(CN2CCOCC2)nc2cc(NC(=O)c3cc(OC)c(OC)c(OC)c3)ccc21 | 0.0% |
| O=C(NCCc1ccccc1)c1ccc2c(c1)nc1n2CCOC1 | -0.2% |
| COc1ccc(-n2c(SCC(=O)NCc3ccccc3)nc3ccsc3c2=O)cc1 | -0.7% |
| CCN1CCN(c2ncnc3c2cnn3-c2ccc(C)c(Cl)c2)CC1 | 1.5% |
| COc1ccc(-n2c(=O)c3c4c(sc3n(Cc3ccccc3Cl)c2=O)CCC4)c(OC)c1 | 2.5% |
| O=C(NCc1ccccc1F)c1ccc(CSc2nc3cccnc3n2Cc2ccccc2)cc1 | 0.1% |
| CCS(=O)(=O)NCCc1sc2nc(-c3ccc(OC)cc3)nn2c1C | -0.3% |
| COc1ccc(-n2c(CNC(=O)c3c(-c4ccccc4)noc3C)nnc2SC)cc1 | -0.3% |
| Cc1ccccc1C1(CC(=O)N2CCC[C@H]2C(N)=O)CC(=O)N(C2CCCC2)C1=O (stereo partly specified) | 1.0% |
| COc1cc(C(=O)NCC(c2ccc3c(c2)OCO3)N2CCN(C)CC2)cc(OC)c1OC (stereo unspecified) | 0.5% |
| COC(=O)c1nnn(CC(=O)Nc2cc(F)ccc2F)c1C(=O)OC | -0.9% |
| CCCCc1nn2c(=O)cc(CN(CC)c3ccccc3)nc2s1 | 1.4% |
| COCCN1Cc2cccc(C(=O)Nc3ccc(C)c(F)c3)c2C1=O | 5.4% |

(more compounds)
| canonical_smiles | PINK1 expr mod |
| --- | --- |
| Cc1ccc2[nH]c(CSc3nnc(NC(=O)COc4ccccc4C)s3)cc(=O)c2c1 | 2.3% |
| COCCNC(=O)CCCn1c(SCC(=O)c2ccc(Br)cc2)nc2c(sc3ccccc32)c1=O | 2.1% |
| Cc1ccc2cc3cc(C(=O)N4CCN(c5cccc(C(F)(F)F)c5)CC4)sc3nc2c1 | 1.5% |
| Cc1ccc2nc(CSc3nnc(NC(=O)c4cccc(Br)c4)s3)cc(=O)n2c1 | 21% |
| O=c1c2c3c(sc2nnn1Cc1ccc(Br)cc1)CCCC3 | -0.8% |
| Cc1ccc(Cl)cc1NC(=O)CCS(=O)(=O)c1ccc(Br)s1 | 3.1% |
| CCOc1ccccc1C(=O)Nc1cccc(-c2nc3ccccc3s2)c1 | 2.1% |
| CCOC(=O)c1c(C)[nH]c(CCC(=O)Nc2ccccc2OCC)c1C | 0.1% |
| Cc1ccc(CCNC(=O)CSCc2nc(-c3ccc(C)cc3)oc2C)cc1 | 3.2% |
| CCn1c(C(=O)N2CCC(C(=O)N3CCN(c4cccc(C)c4C)CC3)CC2)cc2sccc21 | -1.9% |
| Nc1ncnc2c1C(c1ccccc1)c1c(ccc3ccccc13)O2 (stereo unspecified) | -0.7% |
| COc1ccc(OC)c(NC(=O)CSC2=Nc3ccccc3C3=NC(CCC(=O)NCc4ccccc4)C(=O)N23)c1 (stereo unspecified) | 0.7% |
| CN(C)c1ccc(CNC(=O)C2CCCN(S(=O)(=O)c3ccc4c(c3)CCCC(=O)N4)C2)cc1 (stereo unspecified) | 1.2% |
| CCOC(=O)C1CCC(CN(Cc2ccc(Cl)cc2)S(=O)(=O)c2cc(Cl)cc(Cl)c2)CC1 (stereo unspecified) | -0.1% |
| Cc1ccc(NC(=O)c2ccc(CNS(=O)(=O)c3ccc4c(c3)C(C)(C)C(=O)N4C)cc2)cc1C | -0.5% |
| CCOc1ccc(-c2nnc(SCC(=O)NC3CCCCC3)nc2-c2ccc(OCC)c(OC)c2)cc1OC | 1.6% |
| COc1ccc(C(=O)c2oc3ccccc3c2NC(=O)c2nc(SC)ncc2Cl)cc1Cl | -0.3% |
| O=C(CSc1nnc(CNC(=O)c2ccccc2)n1-c1ccc(F)cc1)Nc1ccccc1F | -1.5% |
| Cc1cccc(-c2nc(SCCCOc3cc(C)c(Cl)c(C)c3)n3[nH]c(=O)cc3n2)c1 | -0.7% |
| CCOc1ccc(C(=O)c2oc3ccccc3c2NC(=O)c2cc(-c3ccc(Cl)cc3)on2)cc1 | -0.9% |
| COc1ccc(NC(=O)C2=C(C)Nc3ncnn3C2c2ccc[nH]2)cc1 (stereo unspecified) | -2.1% |
| CC(C)(C)c1ccc(C(=O)N2CC(=O)Nc3ccc(F)cc3C2c2ccc(F)cc2)cc1 (stereo unspecified) | 2.5% |
| Cc1noc(-c2ccccc2OCC(=O)Nc2ccccc2[N+](=O)[O-])n1 | 0.0% |
| CCOC(=O)N1CCC(NC(=O)c2cnn(-c3ccc(F)cc3F)c2C2CCN(C(=O)OC(C)(C)C)CC2)CC1 | -0.4% |
| N#C/C(=C/c1cn(Cc2ccccc2Cl)c2ccccc12)C(=O)Nc1cccc(Cl)c1 | 10% |
| Cc1cnc(SCc2ccccn2)nc1C1CCCN(C(=O)c2cc3ccccc3oc2=O)C1 (stereo unspecified) | 0.0% |

Some of the compounds tested (hit frequency here may not be typical).
